Screening results (PubChem BioAssay)
Vaccinia inh: Vaccinia orthopox stage-specific inhibition; Vaccinia-infected cells, mCherry/Venus stage reporter fluorescence; stronger effect = lower value; some inactives read as strong as hits; activity change (mCherry), % (test concentration not listed); 89,000 compounds, 0.01% hits; AID 1053133;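 active = mCherry past -33% and 40 or more points under the early reporter, replicates agreeing; inconclusive = past -33% without that gap or agreement; tested in A549 cells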;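 also: scaled between vehicle wells and reference inhibitor wells; 23 nL library stock went into each well; one replicate is shown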
Vaccinia inh Venus: also measured in Vaccinia inh; calls as there; activity change (Venus), %; measured here: Venus reporter, other viral stage;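 negative = less Venus signal; first of two replicates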
* marks the source's active call; other numbers are inactive results; ? = inconclusive; . = no result given; & = joins results of further samples. These rows are one share of the data. The share of hits here may be higher or lower than overall.

Fields – Vaccinia inh, Vaccinia inh Venus
#1 COc1cccc(C#Cc2ccc([C@H]3[C@@H](CO)N(C(=O)C4CCCCC4)[C@H]3C#N)cc2)c1
 : -10, -14
#2 CCCC(=O)Nc1ccc2c(c1)OC[C@H](C)N(CCC)C[C@@H](C)[C@@H](OC)CN(C)C2=O
 : 10, 9
#3 COc1ccc(S(=O)(=O)Nc2ccc3c(c2)C(=O)N([C@@H](C)CO)C[C@@H](C)[C@H](CN(C)C(=O)c2ccccc2)OCCCC[C@@H](C)O3)cc1
 : -13, -11
#4 O=C(Nc1nccs1)[C@@H]1[C@@H](CO)[C@@H]2Cn3c(ccc(-c4cccnc4)c3=O)[C@@H]2N1CC1CC1
 : 17, 2
#5 C[C@H](CO)N1C[C@H](C)[C@@H](CN(C)C(=O)Nc2cccc3ccccc23)OCc2cnnn2CCCC1=O
 : 0, 5
#6 C[C@@H]1CN([C@H](C)CO)C(=O)c2cc(NC(=O)Nc3ccc(F)cc3)ccc2O[C@H]1CN(C)Cc1ccccc1
 : -16, -12
#7 C[C@@H]1CN([C@H](C)CO)C(=O)c2cc(NC(=O)CCN3CCOCC3)ccc2O[C@@H]1CN(C)Cc1ccc(Cl)c(Cl)c1
 : -10, -18
#8 C[C@H]1CN([C@@H](C)CO)C(=O)c2cc(NS(=O)(=O)c3ccccc3)ccc2O[C@@H]1CN(C)Cc1ccc(Cl)c(Cl)c1
 : -20, -22
#9 Cc1ccc(S(=O)(=O)Nc2cccc3c2O[C@H](CN(C)C(=O)Nc2ccc(F)cc2)[C@@H](C)CN([C@H](C)CO)C3=O)cc1
 : 8, 3
#10 C[C@@H]1CN([C@H](C)CO)S(=O)(=O)c2ccc(-c3ccccc3)cc2O[C@H]1CN(C)C(=O)c1ccc2c(c1)OCO2
 : -13, -4
#11 C[C@H]1CN([C@@H](C)CO)C(=O)c2cc(NS(=O)(=O)c3ccccc3)ccc2O[C@H]1CN(C)C(=O)Nc1ccccc1
 : 19, 16
#12 CN(C)CC(=O)Nc1ccc2c(c1)[C@@H]1C[C@H](CC(=O)NCc3ccc4c(c3)OCO4)O[C@H](CO)[C@@H]1O2
 : 17, 9
#13 C[C@H]1CN([C@@H](C)CO)C(=O)Cc2cc(NC(=O)Nc3ccc(C(F)(F)F)cc3)ccc2O[C@H]1CN(C)S(=O)(=O)c1cccs1
 : ?, .
#14 CCCNC(=O)C[C@H]1C[C@H]2c3cc(NC(=O)NC4CCCCC4)ccc3O[C@H]2[C@@H](CO)O1
 : -3, 1
#15 COCC(=O)Nc1ccc2c(c1)[C@H]1C[C@@H](CC(=O)N[C@@H](C)c3ccccc3)O[C@H](CO)[C@H]1O2
 : -4, 1
#16 CN1c2ccc(-c3ccc(F)cc3)cc2[C@H]2[C@H](CCN2C(=O)C2CCOCC2)[C@@H]1CO
 : -18, -24
#17 C[C@H]1CN([C@@H](C)CO)C(=O)Cc2cc(NC(=O)Nc3ccc(F)cc3)ccc2O[C@H]1CN(C)Cc1ccc2c(c1)OCO2
 : -11, -11
#18 CN(C)C(=O)C[C@H]1CC[C@@H]2[C@@H](COc3ccc(NC(=O)c4ccc(F)cc4)cc3C(=O)N2C)O1
 : 1, -1
#19 O=C(Nc1ccccc1)N1CCCCN2[C@H](C1)[C@@H](c1ccc(C#Cc3cccnc3)cc1)[C@@H]2CO
 : ?, .
#20 C[C@H]1CN([C@@H](C)CO)C(=O)c2cccc(NS(=O)(=O)c3ccc(Cl)cc3)c2O[C@@H]1CN(C)CC1CCCCC1
 : -5, -2

(continued)
Fields – Vaccinia inh, Vaccinia inh Venus
#21 O=C(c1ccc2c(c1)OCO2)N1CC[C@@H]2[C@H](CO)Nc3ccc(-c4ccccc4)cc3[C@@H]21
 : -1, -5
#22 CN1C(=O)c2cc(NC(=O)C3CC3)ccc2OC[C@H]2O[C@H](CC(=O)O)CC[C@H]21
 : 5, 0
#23 C[C@@H]1CN([C@@H](C)CO)C(=O)c2c(c3ccccc3n2C)-c2ccccc2CO[C@H]1CN(C)C(=O)Nc1ccccc1
 : -13, -16
#24 COCCNC(=O)C[C@H]1C[C@@H]2c3cc(NS(=O)(=O)c4ccccc4)ccc3O[C@@H]2[C@H](CO)O1
 : -2, -3
#25 C/C=C/c1ccc([C@@H]2[C@@H](CO)N(S(=O)(=O)CC)C23CN(C(=O)CC)C3)cc1
 : -6, 0
#26 CC(C)C#Cc1ccc2c(c1)O[C@H](CN(C)C(=O)c1ccccc1)[C@@H](C)CN([C@H](C)CO)S2(=O)=O
 : ?, .
#27 Cc1cc(C(=O)Nc2cccc3c2O[C@H](CN(C)C(=O)Nc2c(C)noc2C)[C@@H](C)CN([C@@H](C)CO)C3=O)n(C)n1
 : 17, 13
#28 CO[C@@H]1CN(C)C(=O)c2cc(NC(=O)Cc3ccccc3)ccc2OC[C@@H](C)N(C(=O)c2ccccc2F)C[C@H]1C
 : -8, -3
#29 Cc1noc(C)c1NC(=O)Nc1ccc2c(c1)C(=O)N([C@@H](C)CO)C[C@H](C)[C@@H](CN(C)C)OCCCC[C@H](C)O2
 : 14, 2
#30 CC(C)NC(=O)NCC[C@H]1CC[C@H](NC(=O)CN(C)C)[C@@H](CO)O1
 : -3, 5
#31 CO[C@@H]1CN(C)C(=O)c2cc(NS(C)(=O)=O)ccc2OC[C@@H](C)N(C(=O)CN(C)C)C[C@H]1C
 : 12, 21
#32 O=C(N[C@@H]1CC[C@H](CCNC(=O)C2CCC2)O[C@@H]1CO)c1ccccn1
 : 0, 2
#33 CCCNC(=O)Nc1ccc2c(c1)C(=O)N(C)C[C@H](OC)[C@H](C)CN(C)[C@H](C)CO2
 : 9, 5
#34 O=C(CN1CCOCC1)NCC[C@@H]1CC[C@@H](NC(=O)c2ccccc2F)[C@@H](CO)O1
 : 0, 6
#35 C[C@H](CO)N1C[C@H](C)[C@@H](CN(C)Cc2ccc(-c3ccccc3)cc2)Oc2c(NC(=O)C3CC3)cccc2C1=O
 : -21, -18
#36 C[C@H]1CN([C@@H](C)CO)C(=O)c2cccc(NS(=O)(=O)c3ccc(Cl)cc3)c2O[C@H]1CN(C)Cc1ccc2c(c1)OCO2
 : 12, 3
#37 C[C@H]1CN([C@@H](C)CO)C(=O)Cc2cc(NC(=O)Cc3cn(C)c4ccccc34)ccc2O[C@H]1CN(C)Cc1ccccc1
 : -15, 0
#38 C[C@@H]1CCCCO[C@@H](CN(C)C(=O)C2CCCCC2)[C@H](C)CN([C@@H](C)CO)C(=O)c2cc(NS(=O)(=O)c3ccc(F)cc3)ccc2O1
 : ?, .
#39 O=C(NCC1CCCCC1)[C@@H]1[C@@H](CO)[C@@H]2Cn3c(ccc(C4=CCCC4)c3=O)[C@H]1N2C(=O)CC1CC1
 : -6, 4
#40 C[C@H]1CN([C@@H](C)CO)C(=O)c2cc(NC(=O)C3CCCCC3)ccc2O[C@H]1CN(C)C(=O)Nc1ccc(F)cc1
 : 9, -4

New compounds follow.
Fields – Vaccinia inh, Vaccinia inh Venus
#41 CC(C)CC#Cc1cnc2c(c1)C(=O)N([C@@H](C)CO)C[C@H](C)[C@@H](CN(C)CC1CCOCC1)O2
 : 4, -4
#42 CN1C(=O)c2cc(NC(=O)c3cc(F)cc(F)c3)ccc2OC[C@H]2O[C@@H](CC(=O)O)CC[C@@H]21
 : 14, 10
#43 C[C@@H]1CN([C@@H](C)CO)C(=O)c2cccc(NC(=O)C3CC3)c2O[C@@H]1CN(C)S(=O)(=O)c1cn(C)cn1
 : 14, 13
#44 C[C@H]1CN([C@@H](C)CO)C(=O)c2cc(C#CCN(C)C)cnc2O[C@H]1CN(C)C(=O)c1ccc2c(c1)OCO2
 : -1, -3
#45 COc1ccccc1NC(=O)N1CC(=O)N2[C@H](CO)[C@@H](c3ccc(C#Cc4ccc(F)cc4)cc3)[C@@H]2C1
 : ?, .
#46 C[C@@H]1CCCCO[C@H](CN(C)C(=O)Nc2ccc(C(F)(F)F)cc2)[C@@H](C)CN([C@H](C)CO)C(=O)c2cc(NC(=O)CCC(F)(F)F)ccc2O1
 : 13, 5
#47 COc1ccc(S(=O)(=O)Nc2ccc3c(c2)C(=O)N([C@@H](C)CO)C[C@@H](C)[C@@H](CN(C)C(=O)CCCN(C)C)OCCCC[C@H](C)O3)cc1
 : 23, 15
#48 O=C(Cc1ccncc1)NCC[C@H]1CC[C@H](NC(=O)Nc2ccc(F)cc2)[C@H](CO)O1
 : -6, -5
#49 CC(C)NC(=O)N(C)C[C@H]1Oc2ccc(NC(=O)Cc3ccccc3)cc2C(=O)N([C@@H](C)CO)C[C@@H]1C
 : 8, 4
#50 C[C@@H]1CCCCO[C@@H](CN(C)Cc2ccccc2)[C@@H](C)CN([C@H](C)CO)C(=O)c2cc(NS(=O)(=O)c3ccc(F)cc3)ccc2O1
 : -10, -15
#51 C[C@H](CO)N1C[C@H](C)[C@@H](CN(C)C)Oc2ccc(NC(=O)CCC(F)(F)F)cc2CC1=O
 : 20, 13
#52 CCCC#Cc1ccc2c(c1)O[C@@H](CN(C)C(=O)C1CC1)[C@@H](C)CN([C@@H](C)CO)S2(=O)=O
 : -29, -22
#53 Cc1noc(C)c1NC(=O)N(C)C[C@H]1Oc2ccc(NC(=O)Cc3cn(C)c4ccccc34)cc2C(=O)N([C@@H](C)CO)C[C@@H]1C
 : 21, 20
#54 N#C[C@H]1[C@H](c2ccc(C3=CCCCC3)cc2)[C@@H](CO)N1C(=O)CN1CCOCC1
 : -12, -13
#55 Cc1noc(C)c1NC(=O)N(C)C[C@H]1Oc2c(NC(=O)c3ccncc3)cccc2C(=O)N([C@H](C)CO)C[C@@H]1C
 : 3, 1
#56 CCCNC(=O)N(C)C[C@H]1Oc2ncc(C#CCC(C)C)cc2C(=O)N([C@@H](C)CO)C[C@H]1C
 : -3, -3
#57 CN(C)CC(=O)Nc1ccc2c(c1)[C@H]1C[C@@H](CC(=O)NCCc3ccccc3)O[C@H](CO)[C@H]1O2
 : 2, -3
#58 C[C@H]1CN([C@@H](C)CO)C(=O)c2cccc(NC(=O)c3ccncc3)c2O[C@H]1CN(C)Cc1ccc(C(=O)O)cc1
 : 29, 20
#59 C[C@@H]1CN([C@H](C)CO)C(=O)c2cc(C3=CCCC3)cnc2O[C@@H]1CN(C)C(=O)c1ccccc1
 : -9, -3
#60 CO[C@H]1CN(C)C(=O)c2ccc(NS(=O)(=O)c3ccccc3C)cc2OC[C@@H](C)NC[C@H]1C
 : 2, -4

Excerpt, nos. 51 to 60
Fields – Vaccinia inh, Vaccinia inh Venus
#51 C[C@H](CO)N1C[C@H](C)[C@@H](CN(C)C)Oc2ccc(NC(=O)CCC(F)(F)F)cc2CC1=O
 : 20, 13
#52 CCCC#Cc1ccc2c(c1)O[C@@H](CN(C)C(=O)C1CC1)[C@@H](C)CN([C@@H](C)CO)S2(=O)=O
 : -29, -22
#53 Cc1noc(C)c1NC(=O)N(C)C[C@H]1Oc2ccc(NC(=O)Cc3cn(C)c4ccccc34)cc2C(=O)N([C@@H](C)CO)C[C@@H]1C
 : 21, 20
#54 N#C[C@H]1[C@H](c2ccc(C3=CCCCC3)cc2)[C@@H](CO)N1C(=O)CN1CCOCC1
 : -12, -13
#55 Cc1noc(C)c1NC(=O)N(C)C[C@H]1Oc2c(NC(=O)c3ccncc3)cccc2C(=O)N([C@H](C)CO)C[C@@H]1C
 : 3, 1
#56 CCCNC(=O)N(C)C[C@H]1Oc2ncc(C#CCC(C)C)cc2C(=O)N([C@@H](C)CO)C[C@H]1C
 : -3, -3
#57 CN(C)CC(=O)Nc1ccc2c(c1)[C@H]1C[C@@H](CC(=O)NCCc3ccccc3)O[C@H](CO)[C@H]1O2
 : 2, -3
#58 C[C@H]1CN([C@@H](C)CO)C(=O)c2cccc(NC(=O)c3ccncc3)c2O[C@H]1CN(C)Cc1ccc(C(=O)O)cc1
 : 29, 20
#59 C[C@@H]1CN([C@H](C)CO)C(=O)c2cc(C3=CCCC3)cnc2O[C@@H]1CN(C)C(=O)c1ccccc1
 : -9, -3
#60 CO[C@H]1CN(C)C(=O)c2ccc(NS(=O)(=O)c3ccccc3C)cc2OC[C@@H](C)NC[C@H]1C
 : 2, -4

Continuation.
Fields – Vaccinia inh, Vaccinia inh Venus
#61 O=C(C[C@@H]1C[C@H]2c3cc(NC(=O)Cc4ccncc4)ccc3O[C@H]2[C@H](CO)O1)NCCN1CCCCC1
 : -3, 6
#62 CO[C@@H]1CN(C)C(=O)c2cc(NC(=O)C3CC3)ccc2OC[C@@H](C)N(C(=O)C2CCOCC2)C[C@H]1C
 : 2, 7
#63 COCC#Cc1ccc2c(c1)O[C@@H](CN(C)C(=O)NC(C)C)[C@H](C)CN([C@@H](C)CO)S2(=O)=O
 : 4, 6
#64 C[C@@H]1CN([C@H](C)CO)C(=O)CCCn2nncc2CO[C@H]1CN(C)C(=O)c1ccc2ccn(C)c2c1
 : 9, 9
#65 CC=Cc1ccc2n(c1=O)C[C@@H]1[C@@H](CO)[C@H](C(=O)N3CCc4ccccc4C3)[C@H]2N1Cc1ccncc1 (mixture of isomers)
 : -2, -6
#66 C[C@@H]1CN([C@@H](C)CO)C(=O)c2cccc(NC(=O)c3ccncc3)c2O[C@H]1CN(C)C(=O)Nc1ccccc1
 : 17, 18
#67 O=C(N[C@H]1CC[C@@H](CCNS(=O)(=O)Cc2ccccc2)O[C@@H]1CO)c1ccccc1F
 : 5, 9
#68 CO[C@H]1CN(C)C(=O)c2ccc(NS(=O)(=O)c3cn(C)cn3)cc2OC[C@@H](C)N(CC2CC2)C[C@@H]1C
 : 3, 2
#69 C[C@@H]1CN([C@@H](C)CO)C(=O)c2cc(N(C)C)ccc2O[C@@H](C)CCCCO[C@@H]1CN(C)S(=O)(=O)c1cccs1
 : -8&16, 4&-2
#70 O=C(C[C@@H]1CC[C@H](NS(=O)(=O)c2ccc(F)cc2)[C@H](CO)O1)NCCc1ccncc1
 : 7, 16
#71 C[C@H]1CN([C@@H](C)CO)S(=O)(=O)c2ccc(-c3ccc(C#N)cc3)cc2O[C@@H]1CN(C)C(=O)Nc1cc(F)ccc1F
 : -24, -15
#72 COc1ccc(NC(=O)N[C@@H]2CC[C@@H](CC(=O)NC3CCCCC3)O[C@@H]2CO)cc1
 : -2, -2
